HNF4A DNA FP: change in binding of human HNF4 alpha to DNA. P41235. AID 1224865. actives 0.3% (n = 360,000). HNF4a-FITC DNA binding, fluorescence polarization, 1 h. activity change, % at 10 µM; in the data active = activity change above about 30%, passing the limit was not always enough;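 note: controls were the assay level and a saturating level of protein; the project sought stronger binding though the title names inhibitors; some compounds called inactive have numbers as strong as hits; positive values seem to mean higher polarization but the record does not say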
rRNA inh HTS: inhibitors of bacterial rRNA selective over humanized ribosomes; actives 1.6% (n = 350,000); E. coli WT GFP vs humanized-ribosome RFP mutants, fluorescence, 24 h; stronger effect = lower value; DMSO median 0, no signal -100; AID 720706; GFP signal change (wild-type ribosome), % (concentration not given with the values);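 active = significant combined selectivity score with lowered wild-type GFP, culture density cut under 30%, mutant RFP and density less affected; inactive = any of these conditions unmet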; note: one replicate is shown; some compounds called inactive have numbers as strong as hits
E coli growth: blocks Escherichia coli growth; OD600 absorbance (concentration not given with the values); actives 0.21% (n = 330,000); OD600, 23 h; stronger effect = lower value;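 active = OD600 absorbance below the run mean of sample wells minus 3.6 SD, in any replicate, cut at about 0.56 in these data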;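 note: stock transfer was 300 nL into about 60 µL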
FGF22 binding: binders of recombinant human FGF22 by thermal shift. Q9HCT0. SYPRO orange fluorescence; percent of sucrose octasulfate shift, DMSO zero. calls only at 9.99 µM. actives 1.5% (n = 340,000);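 active = melting point raised past a set limit in the mean and every replicate; inconclusive = no clear call; three in four hits are not shown here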
Target sequence (Q9HCT0 whole entry, looked up): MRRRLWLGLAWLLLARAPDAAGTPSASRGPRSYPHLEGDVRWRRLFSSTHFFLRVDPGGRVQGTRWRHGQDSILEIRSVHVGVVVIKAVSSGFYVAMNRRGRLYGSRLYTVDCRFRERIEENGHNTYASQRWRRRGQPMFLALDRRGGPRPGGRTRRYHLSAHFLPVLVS
Vif A3G: inhibitors of Vif binding to APOBEC3G peptide, primary screen, biochemical, TR-FRET, GST-Vif 1-94, biotin-A3G peptide, dose response retest (AID 1117319). actives 0.57% (n = 260,000). inhibition, %; hits with a dose series show IC50 in µM. TR-FRET GST-Vif / biotin-A3G peptide binding; higher % means a stronger effect; test concentration not given here; strong numbers were not always called active;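 active = above the screen mean plus three standard deviations and confirmed in dose response; inconclusive = results disagree or hit not tested in dose response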;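 note: Vif residues 1-94 fused to GST binding biotinylated APOBEC3G peptide 110-148; 0% = full assay without inhibitor and 100% = GST in place of GST-Vif; retest series ran down from 100 µM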
MLL AF4-AF9 inh: blocks AF4 peptide binding to human AF9 | inhibition, % at 10 µM | AlphaScreen, biotin-AF4 peptide binding to FLAG-AF9 | actives 0.47% (n = 350,000) | P42568 | AID 651704;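 active = every replicate reaching a set inhibition limit, whatever the replicate mean, cut at about 25% in these data; inconclusive = mean inhibition reaches that limit but some replicates miss it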;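 note: 0% = plate neutral control median and 100% = total signal loss; the record names both 10 and 1 µM as test concentration; the first replicate is given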
Target sequence (P42568 whole entry, looked up): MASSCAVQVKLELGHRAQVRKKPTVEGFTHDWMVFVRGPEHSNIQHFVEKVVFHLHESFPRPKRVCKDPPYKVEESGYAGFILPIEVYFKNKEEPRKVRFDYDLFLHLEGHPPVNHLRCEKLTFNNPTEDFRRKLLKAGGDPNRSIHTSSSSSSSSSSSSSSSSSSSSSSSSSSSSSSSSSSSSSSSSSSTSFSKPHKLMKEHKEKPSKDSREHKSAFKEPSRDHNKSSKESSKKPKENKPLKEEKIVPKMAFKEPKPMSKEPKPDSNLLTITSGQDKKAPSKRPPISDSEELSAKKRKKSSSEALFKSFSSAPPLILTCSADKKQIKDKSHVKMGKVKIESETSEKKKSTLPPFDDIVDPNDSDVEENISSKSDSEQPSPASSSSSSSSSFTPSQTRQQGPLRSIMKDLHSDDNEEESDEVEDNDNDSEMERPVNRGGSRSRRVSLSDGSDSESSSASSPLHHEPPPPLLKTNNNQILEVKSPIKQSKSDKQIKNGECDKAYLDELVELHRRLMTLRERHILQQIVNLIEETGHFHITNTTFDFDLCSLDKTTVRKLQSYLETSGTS
ALR H2O2 inh: human ALR oxidase inhibition via reduced H2O2. P55789. AID 485317. inhibition, % (test concentration not listed). actives 3.8% (n = 290,000). purified ALR, DTT oxidation, H2O2 HRP-luminol luminescence;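 active = mean and each replicate at 75% or more; inconclusive = only one of the two met; inactive = neither met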;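 note: stock transfer was 7.5 nL into about 7.5 µL; 0% = neutral wells and 100% = wells with inactivated enzyme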
Target sequence (P55789 whole entry, looked up): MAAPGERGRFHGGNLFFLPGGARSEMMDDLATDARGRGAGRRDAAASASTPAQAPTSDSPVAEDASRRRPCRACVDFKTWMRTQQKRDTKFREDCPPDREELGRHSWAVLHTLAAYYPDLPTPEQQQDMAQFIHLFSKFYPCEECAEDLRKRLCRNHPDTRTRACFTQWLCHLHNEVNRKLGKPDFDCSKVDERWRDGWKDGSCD
rRNA inh HTS OD600: further read-out of rRNA inh HTS, marked with its call; OD600 change, %; measured here: OD600 growth;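 optical density of the mix in the first replicate; 0 = DMSO median and -100 = no signal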
rRNA inh HTS RFP: second read-out of rRNA inh HTS, no call of its own (marks repeat the call); RFP signal change, %; measured here: RFP humanized mutant strains;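 first replicate; 0 = DMSO median and -100 = no signal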
Starred values were filed as active, the others as inactive; i = inactive; ? = inconclusive; nt = not tested or not shown; & = joins results of further samples. Some of the compounds tested. The share of hits here may be higher or lower than overall.

SMILES	HNF4A DNA FP	rRNA inh HTS	rRNA inh HTS OD600	rRNA inh HTS RFP	E coli growth	FGF22 binding	Vif A3G	MLL AF4-AF9 inh	ALR H2O2 inh
Cc1ccc(S(=O)(=O)N(C)C)cc1NC(=O)CCNC(=O)c1ccccc1Cl	-0.4	nt	nt	nt	0.69	nt	12%	nt	0
CC1(C)CC2CC(C)(CN2C(=O)COC(=O)c2n[nH]c(=O)c3ccccc23)C1 (centres undefined)	2.2	nt	nt	nt	0.76	nt	10%	nt	-29
O=C(CSc1cc(Cl)ccc1Cl)NCC1CCCO1 (centres undefined)	0.7	nt	nt	nt	0.65	nt	-4%	nt	-5
C[C@H](CO)N1C[C@H](C)[C@H](CN(C)S(=O)(=O)c2cccc(F)c2)Oc2ncc(C#Cc3cccc(F)c3)cc2C1=O	nt	4	0	4.8	nt	i	nt	-3.4	nt
CCN1CCN(c2cc(C)c3cc(NC(=O)c4cc(OC)cc(OC)c4)ccc3n2)CC1	4.6	3	0	12	0.7	i	4%	16	-13
CC(C)OC(=O)c1c(F)c(F)c(N2CCOCC2)c(F)c1F	-0.3	nt	nt	nt	0.68	nt	3%	nt	-3
Cc1ccc(-n2nc3c(c2NC(=O)c2ccc(S(=O)(=O)N4CCOCC4)cc2)CSC3)c(C)c1	3.1	nt	nt	nt	0.73	nt	4%	nt	nt
O=C(c1sc2cc([N+](=O)[O-])ccc2c1Cl)N1CCCCC1	0.7	nt	nt	nt	0.7	nt	nt	nt	-16
ON(Cc1c(F)cccc1Cl)Cc1c(F)cccc1Cl	0.3	11	9	0.7	0.65	i	30%	0.8	2
COCc1nnc(NC(=O)C2CC(=O)N(c3ccc(C)c(Cl)c3)C2)s1 (centres undefined)	3.0	1	3	0.6	0.69	nt	1%	-1.3	-17
O=C(COC(=O)C1CCCCC1)Nc1ccc(S(=O)(=O)N2CCOCC2)cc1	-9.5	2	-5	0.5	0.73	i	0%	-3.1	48
CCOC(=O)c1ccc(N2C(=O)CC(N(C)CCc3ccc(OC)c(OC)c3)C2=O)cc1 (centres undefined)	1.9	nt	nt	nt	0.74	nt	10%	nt	0
COc1cc(OC)c(C2SCCCS2)cc1OC	-3.9	14	12	-0.3	0.68	i	2%	-6.1	-8
O=C(CN1CCN(c2ccc(O)cc2)CC1)Nc1ccc(-c2ccccc2)cc1	4.3	-3	7	-0.6	0.67	i	nt	-1.1	nt
CCC(=O)c1ccc(OCC(O)Cn2nc(C)c(C(C)=O)c2C)cc1 (centres undefined)	-0.2	4	6	-1.0	0.73	i	nt	3.6	nt
CCCCn1c(SCC(=O)Nc2cc(C)on2)nc2ccccc2c1=O	2.6	nt	nt	nt	0.72	nt	-41%&-7%	nt	0
O=C(C[C@@H]1CC[C@@H]2[C@H](COC[C@@H](O)CN2C(=O)Nc2ccccc2)O1)NCc1ccccc1F	nt	-1	5	-1.2	nt	i	nt	-0.6	nt
CSc1nc(-c2ccccc2F)c(C#N)c(=O)n1C	-1.1	3	9	3.5	0.68	i	10%	-2.1	68
CN(CC(=O)Nc1cccc(F)c1)C(=O)c1cccnc1Sc1ccccc1Cl	-0.5	4	-5	-1.2	0.67	i	3%	-74	-2
C[C@@H]1CN([C@@H](C)CO)C(=O)c2cc(NC(=O)Nc3ccc4c(c3)OCO4)ccc2O[C@@H]1CN(C)S(C)(=O)=O	nt	4	1	-0.6	nt	i	nt	0.2	nt
CSCC[C@H](NC(=O)NCc1ccc(F)cc1)C(=O)O	0.7	nt	nt	nt	nt	nt	3%	nt	-1
CC(C)CN=Cc1c(O)c([N+](=O)[O-])cc2oc3c(c12)CCCC3	4.5	nt	nt	nt	0.66	nt	?	nt	-10
Cc1ccc2oc(=O)c(/C=C(\O)c3ccco3)nc2c1	41*	nt	nt	nt	nt	i	nt	-2.9	10
CC(=O)N1[C@@H]2Cn3c(ccc(C4=CCCC4)c3=O)[C@H]1[C@@H](C(=O)NCc1ccccc1)[C@@H]2CO	nt	3	-2	0.9	nt	i	nt	-22	nt
Cc1ccc(C(=O)N2CC(=O)Nc3ccc(F)cc3C2c2ccccc2)cc1 (centres undefined)	-1.4	3	0	-7.5	0.65	i	3%	2.8	-1
Cc1ccc(C)c(CSCC(=O)NCc2cccs2)c1	-1.5	-30	-25	-5.2	0.63	i	-9%	-0.1	-10
O=C(NC1CCCCC1)N[C@@H]1C=C[C@@H](CC(=O)N2CCOCC2)O[C@H]1CO	nt	-1	3	-3.0	nt	i	nt	1.3	nt
CCc1cccc2c(C(=O)CN3C(=O)NC4(CCCCCC4)C3=O)c[nH]c12	3.3	nt	nt	nt	0.69	i	-10%	0.4	-1
COc1ccc(F)cc1C(=O)C1CCCN(Cc2c(C)n(C)n(-c3ccccc3)c2=O)C1 (centres undefined)	-0.5	8	10	-2.6	0.7	i	8%	0.1	-4
O=C(O)CSC1c2ccccc2C(=O)N1Cc1ccccc1 (centres undefined)	-0.7	nt	nt	nt	0.72	nt	-3%	nt	-9
COc1ccc(C(=O)NCC(=O)OCc2cccc(Br)c2)cc1	-5.6	-12	-4	0.0	0.67	i	-2%	0.5	-5
CC(=O)ON1C(C)(C)CC(OC(=O)c2ccccc2)CC1(C)C	0.3	nt	nt	nt	0.73	nt	-14%	nt	-3
O=C(CN(C(=O)c1csnn1)c1cccc2ccccc12)NCc1ccc(F)cc1	2.2	-3	-17	-1.5	0.71	i	nt	-2.0	-5
Cc1cc(C(=O)CSC(C)c2nc3ccccc3c(=O)[nH]2)c(C)n1C (centres undefined)	-2.1	nt	nt	nt	0.69	nt	?	nt	99*
O=C(Nc1ccccc1C(=O)N1CCN(Cc2ccccc2)CC1)c1ccc(F)cc1	-1.9	-4	-2	1.8	0.73	i	-9%	0.5	-5
CCCCOC(=O)Nc1nc(CC(=O)OCC)cs1	-3.6	nt	nt	nt	0.64	nt	2%	nt	3
CCC1(CC)NC(=O)N(CC(=O)Nc2ccc(C)cc2C)C1=O	-1.8	nt	nt	nt	0.66	i	-6%	-2.1	-6
Cc1oc(-c2ccccc2)nc1C(=O)OCC(=O)NCc1ccc(F)cc1	2.2	-4	4	-2.6	nt	i	39%	-3.7	nt
O=S(=O)(NC1=NCCCCC1)c1ccc(F)cc1F	-0.5	22	15	-1.1	0.67	i	nt	0.1	nt
C[C@@H](C(=O)Nc1ccc2c(c1)OCCO2)n1nnc2ccccc2c1=O	4.1	6	-2	0.6	0.65	i	2%	-2.5	2
Cc1cccc(NC(=S)NC(C)CCc2ccccc2)c1 (centres undefined)	-0.4	-26	-63	3.8	0.67	i	nt	-15	-1
C[C@@H]1CCCCO[C@@H](CN(C)C(=O)c2ccccc2)[C@H](C)CN([C@@H](C)CO)C(=O)c2cc(N(C)C)ccc2O1	nt	0	-4	0.5	nt	i	nt	2.2	nt
CCOc1cc(N2CCOCC2)c(OCC)cc1NC(C)C(=O)N1CCC(C)CC1 (centres undefined)	2.1	nt	nt	nt	0.66	nt	?	nt	nt
Nc1ccc2c(c1)Cc1cc(N)c(Br)cc1-2	3.2	-5	-2	-4.7	nt	i	7%	15	nt
CCOc1ccc(/C(O)=C2/C(=O)C(=O)N(CC3CCCO3)C2c2ccc(C)o2)cc1 (centres undefined)	1.9	nt	nt	nt	nt	nt	3%	nt	37
O=C(Nc1ccccc1Cl)c1cc(S(=O)(=O)N2CCOCC2)cs1	1.3	nt	nt	nt	0.7	nt	5%	nt	-22
C[C@H](CO)N1C[C@H](C)[C@H](CN(C)S(=O)(=O)c2ccccc2)Oc2ncc(C#CC3CCCCC3)cc2C1=O	nt	-3	-5	1.5	nt	i	nt	1.0	nt
COc1ccc(NS(=O)(=O)c2ccc(NS(C)(=O)=O)cc2)cc1	-1.4	nt	nt	nt	0.7	nt	22%	nt	1
C[C@H]1CN([C@@H](C)CO)C(=O)c2cccc(NS(=O)(=O)c3ccc(F)cc3)c2O[C@@H]1CN(C)S(=O)(=O)c1ccccc1	nt	-2	2	-0.5	nt	i	nt	-3.6	nt
CNC(=O)C1CN(C(=O)c2nn(Cc3ccccc3)c(=O)c3ccccc23)c2ccccc2O1 (centres undefined)	-5.8	-6	-14	-2.0	nt	i	nt	4.4	nt
O=C(NCc1ccccc1)C1=C[C@H](c2coc3ccccc3c2=O)C[C@H](OCCCCO)O1	4.0	2	-2	2.7	nt	i	1%	1.8	0
CC(C)(C)c1cc(C(=O)NNC(=O)Nc2ccccc2)n(Cc2ccccc2)n1	-4.1	1	-17	-1.9	0.65	i	nt	-0.5	6
O=C(NCCC(c1ccccc1)c1ccccc1)c1cnc2sccn2c1=O	-2.3	15	13	3.0	0.68	i	nt	-0.7	-2
COc1ccccc1C(=O)NNC(=O)CN1C(=O)c2ccccc2C1=O	-5.0	13	16	2.1	0.68	i	nt	2.1	-6
Cc1sc2ncnc(SC(C)C(=O)N3c4ccccc4Sc4ccccc43)c2c1C (centres undefined)	-2.6	15	17	-1.9	0.76	i	17%	-4.7	-5
C[C@H](CO)N1C[C@H](C)[C@H](CN(C)Cc2ccccc2)Oc2cc(C#C[C@@H](C)O)ccc2S1(=O)=O	nt	-3	-7	1.4	nt	i	nt	-0.6	nt
Cn1c(-c2ccc(Cl)cc2)cnc1NCc1cc2c(cc1[N+](=O)[O-])OCO2	-3.4	-11	-20	-7.7	nt	i	nt	9.7	26
CC(C)Oc1ccc(S(=O)(=O)N2CCOCC2)cc1NC(=O)Cc1ccsc1	1.4	-6	-19	0.5	0.68	i	10%	-0.3	-7
COc1cccc2[nH]c(C(=O)NCC3CCCO3)cc12 (centres undefined)	-4.3	-2	2	-7.2	0.68	i	-6%	1.1	-30
COCc1c(C#N)c(NCCc2ccccc2)nc(C)c1[N+](=O)[O-]	0.2	7	8	26	0.69	i	5%	5.5	nt

(next part)
SMILES	HNF4A DNA FP	rRNA inh HTS	rRNA inh HTS OD600	rRNA inh HTS RFP	E coli growth	FGF22 binding	Vif A3G	MLL AF4-AF9 inh	ALR H2O2 inh
COC(=O)c1cc(NC(=O)COC(=O)C2CCC2)cc(C(=O)OC)c1	0.2	-2	3	1.7	0.65	i	1%	-0.1	-15
O=[N+]([O-])c1cccc2[nH]ncc12	-1.0	-2	-1	11	nt	i	nt	10	nt
Oc1ccc(NC(=S)N=Nc2c(O)[nH]c3ccc(Br)cc23)cc1	-1.0	-23*	-4.1*	-1.6*	0.61	i	7%	14	nt
CCOC(=O)CSc1nc2ccccc2c(=O)n1CC1CCC(C(=O)NCc2ccco2)CC1 (centres undefined)	-3.7	10	11	-2.5	0.76	nt	-5%&-7%	nt	-14
CC(C)(C)NC(=O)CSc1nc2cc(S(=O)(=O)N3CCCCC3)ccc2o1	-2.0	8	11	-3.6	0.71	i	nt	-3.2	-2

Individual results from the list:
`CCOC(=O)CSc1nc2ccccc2c(=O)n1CC1CCC(C(=O)NCc2ccco2)CC1` (centres undefined) in rRNA inh HTS OD600 is listed with 11
`CC(C)(C)NC(=O)CSc1nc2cc(S(=O)(=O)N3CCCCC3)ccc2o1` in rRNA inh HTS OD600 is listed with 11
`O=[N+]([O-])c1cccc2[nH]ncc12` in rRNA inh HTS is listed with -2
`COC(=O)c1cc(NC(=O)COC(=O)C2CCC2)cc(C(=O)OC)c1` in Vif A3G is listed with 1%

Records listed so far marked active in HNF4A DNA FP:
SMILES	HNF4A DNA FP	rRNA inh HTS	rRNA inh HTS OD600	rRNA inh HTS RFP	E coli growth	FGF22 binding	Vif A3G	MLL AF4-AF9 inh	ALR H2O2 inh
Cc1ccc2oc(=O)c(/C=C(\O)c3ccco3)nc2c1	41*	nt	nt	nt	nt	i	nt	-2.9	10

Screening results from PubChem BioAssay.
